Bst PK mod: Pyruvate Kinase; partly purified Bacillus stearothermophilus pyruvate kinase, luminescence ATP production; ribose 5-phosphate activator present at AC10; Potency, µM; hit rate 1.2% among 51,000; AID 361, 2006; in the data active means potency below about 11 µM; inconclusive means mostly about 12 µM to 25 µM; inactive means weaker than that;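 the screen sought inhibitors and activators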;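 further: potency means the concentration at half of the fitted maximal effect; scaled between full activation by ribose 5 phosphate and full inhibition by luteolin; about four in five hits inhibit and the cells do not say which; series up to 57 µM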
TsaE inh: qHTS Assay for Inhibitors of YjeE; purified YjeE, fluorescence polarisation of a bound ADP probe; Potency, µM; tRNA threonylcarbamoyladenosine biosynthesis protein TsaE (Escherichia coli (strain …; hit rate 0.05% among 71,000; active = well fitted falling curve; inconclusive = weaker or top-dose-only fall, or a rising curve; inactive = flat or poorly fitted curve;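 further: top concentration of the series not given in the record; excess ADP was the control for the full effect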
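Fluorescence polarization of a BODIPY Texas Red–ADP probe (2 uM) bound to purified YjeE (10 uM) was read after 15 min room-temperature incubation with compounds. Loss of polarization marks inhibitors; ADP serves as titrated control.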
The depositor's hits bear a star; i = inactive; ? = inconclusive; . = no result given; & = joins results of further samples. An excerpt; rates above refer to the full screens.

Every second line gives: Bst PK mod | TsaE inh
1. COc1ccc(C(=O)c2c(C)n(CCN3CCOCC3)c3cc(I)ccc23)cc1
    . | i
2. O=CN1C[C@H]2C[C@@H](C1)c1cccc(=O)n1C2
    . | i
3. CC12CN3CC(C)(CN(C1)C3c1ccncc1)C2=O (stereo unspecified)
    >57 | i
4. COc1ccc2[nH]cc(CCN)c2c1
    . | i
5. Cc1ccccc1N
    . | i
6. CCN(CC)C(=O)c1ccc(NC(=O)Cn2nc(C)c3ccccc3c2=O)cc1
    >57 | i
7. C[N+]1(C)[C@@H]2CC[C@H]1CC(OC(=O)C(CO)c1ccccc1)C2 (stereo partly specified)
    >26&>11 | .
8. CC(C)C(=O)CP(=O)(O)O
    . | i
9. CCNC(=O)[C@@H]1O[C@@H](n2cnc3c(N)ncnc32)[C@@H](O)[C@H]1O
    . | i
10. CC(=O)O[C@H]1CC[C@@]2(C)C(=CC[C@@H]3[C@H]2CC[C@]2(C)C(=O)CC[C@H]32)C1
    . | i
11. CCCCn1c(O)c(C(CC)=Nc2ccc(C(=O)O)cc2)c(=O)[nH]c1=O
    >57 | i
12. NC(=NCc1ccc(Cl)cc1)SCCCc1cnc[nH]1
    . | i
13. O=C(c1cc2cc3ccc(Cl)cc3nc2o1)N1CCC2(CC1)OCCO2
    . | i
14. O=C(Oc1ccc([N+](=O)[O-])cc1)N1CCC(N2CCCCC2)CC1
    . | i
15. CN1CCCC2(CCN(C(=O)c3csnn3)CC2)C1
    . | i
16. Cc1sc2c(c1C)C(c1cccs1)=NCC(=O)N2CC(=O)NCc1cccs1
    >57 | i
17. CN1C(=O)CCS(=O)(=O)[C@@H]1c1ccc(Cl)cc1
    . | i
18. C=CCOC(C)=O
    . | i
19. COCCOC(=O)c1c(C)oc2ccc(OC(=O)N(C)C)cc12
    >57 | i
20. CC(=O)N1CN2CN(C(C)=O)CC(C(=O)c3ccccc3)(C2)C1
    . | i

Reprinted at random: 3 compounds from above.
Every second line gives: Bst PK mod | TsaE inh
4. COc1ccc2[nH]cc(CCN)c2c1
    . | i
5. Cc1ccccc1N
    . | i
20. CC(=O)N1CN2CN(C(C)=O)CC(C(=O)c3ccccc3)(C2)C1
    . | i

(list continues)
Every second line gives: Bst PK mod | TsaE inh
21. O=C(CCN1CC2CCC(CC2)C1)c1cccs1
    . | i
22. O=C(O)CC[N+](=O)[O-]
    . | i
23. O=[As](O)(O)c1ccc2nc3cc([As](=O)(O)O)ccc3nc2c1
    . | i
24. Cc1cccc(N)c1C
    . | i
25. C[C@@]12CCC[C@](C)(C(=O)O)[C@@H]1CCc1ccc(O)cc12
    . | i
26. CC(Cc1ccccc1)[n+]1cc(/N=C(\N)[O-])on1 (stereo unspecified)
    >57 | i
27. O=C(O)C(O)(c1ccccc1)C1CCCC1 (stereo unspecified)
    >57 | i
28. CC(=O)N1CC(=O)Nc2ccc(Cl)cc2C1c1ccc(F)cc1 (stereo unspecified)
    >57 | i
29. O=c1c2ccccc2nc(-c2ccccc2)n1-n1cccc1
    . | i
30. COc1ccc(-n2nc(C(F)(F)F)cc2-c2ccc(Cl)cc2)cc1
    . | i
31. Cn1c(=O)cc(SCC(=O)N2CCC3(CC2)OCCO3)c2ccc(Cl)cc21
    . | i
32. CC(=O)N(C1=NCCCS1)c1ccccc1F
    >57 | i
33. CC(=O)c1c(O)n(C2CCCCCC2)c(=O)[nH]c1=O
    >57 | i
34. COCCNC(=O)c1c(NC(=O)c2ccco2)n(Cc2ccccc2)c2nc3ccccc3nc12
    >57 | i
35. O=C(O)CNCP(=O)(O)O
    . | i
36. O=[N+]([O-])c1ccc2c3c(cccc13)CC2
    . | i
37. O=C(O)C(Cl)Cl
    . | i
38. C[C@@]12CC[C@H]3[C@@H](CC[C@@H]4C[C@H](O)CC[C@]43C)[C@H]1CC[C@H]2O
    . | i
39. COC(=O)C(O)(c1c[nH]c2ccccc12)C(F)(F)F (stereo unspecified)
    >26 | .
40. COc1ccccc1OCCCn1cc(C(=O)c2ccco2)c2ccccc21
    >57 | i
41. Ic1cncc(OC[C@@H]2CCN2)c1
    . | i
42. Cc1ccc(C)c(CN2CCC(n3nnc4cc(F)ccc43)CC2)c1
    >57 | i
43. O=C(O)C1CSC(c2cccnc2)N1 (stereo unspecified)
    . | i
44. Cn1c(O)c(C=Nc2ccc(Cl)cc2)c(=O)n(C)c1=O
    . | i
45. c1ccc2c(CN3CCCCCCC3)c[nH]c2c1
    . | i
46. COc1cc2[nH]c(=O)n(-c3cccc(Cl)c3)c(=O)c2cc1OC
    >26 | .
47. O=C1NC(=O)[C@]2(Cc3ccccc3N3CCN(c4ccccc4)CC32)C(=O)N1Cc1ccccc1 (stereo partly specified)
    >57 | i
48. O=c1[nH]c(=O)n(Cc2ccccc2)c(O)c1C=NCCN1CCNCC1
    >26 | .
49. CN(C)CCCNc1c2c(nc3ccc(Cl)cc13)CCCC2
    . | i
50. Cc1nccc2c1[nH]c1ccccc12
    . | i
51. Cc1cc(NC(=O)COC(=O)c2c(C)nn(Cc3ccccc3)c2Cl)no1
    >57 | i
52. Cc1ccc(N2C(=O)CC(=O)NC2=O)cc1
    >57 | i
53. NC(=O)CN1CCCC1=O
    . | i
54. c1ccc2c(CN3CCN(C4CCCCC4)CC3)c[nH]c2c1
    . | i
55. Cc1nn(-c2ccccc2)c2c1C(c1ccc3c(c1)OCO3)SCC(=O)N2 (stereo unspecified)
    ? | i
56. O=[N+]([O-])c1cc(Cl)c(Cl)cc1Cl
    . | i
57. O=P1(Nc2ccc(F)cc2)COc2ccccc2OC1
    >57 | i
58. Cc1ccc(C[N+](C)(C)C)o1
    . | i
59. Cc1ccc2nsnc2c1-n1c(C)nc2ccccc2c1=O
    >57 | i
60. C=CCn1c(O)c(C(CC)=Nc2ccccc2NC(C)=O)c(=O)[nH]c1=O
    >57 | i
61. C=CCc1ccc2c(c1)OCO2
    . | i
62. O=C(Nc1cccc(OC(=O)N2CCCCC2)c1)N1CCCCC1
    >57 | i
63. CNCC/C=C\c1cccnc1
    . | i
64. CCCCCCCCOC(=O)c1ccccc1C(=O)OCCCCCCCC
    . | i
65. CCSC(=O)Cl
    . | i
66. COC(=O)[C@@H](N)CCCN=C(N)N[N+](=O)[O-]
    . | i
67. CN(C)CP(=O)(Nc1ccccc1)N(C)C (stereo unspecified)
    >57 | i
68. CCCNS(=O)(=O)c1ccc(OCC(=O)N2CCN(Cc3ccc4c(c3)OCO4)CC2)cc1
    >57 | i
69. COC(=O)C(O)(c1ccc2c(c1)CCCN2)C(F)(F)F (stereo unspecified)
    >57 | i
70. Nc1c(C(=O)NCc2ccco2)c2nc3ccccc3nc2n1CCN1CCCCC1
    >26 | .
71. N[C@H](Cc1o[nH]c(=O)c1Cl)C(=O)O
    . | i
72. C=C1C/C(=C\C)C(=O)O[C@@H]2CCN3CC=C(COC(=O)[C@]1(C)O)[C@H]23
    . | i
73. O=c1[nH]c(=O)n(Cc2ccccc2)c(O)c1C=Nc1ccc(CN2CCOCC2)cc1
    >57 | i
74. CN1CC[C@@]23CCCC[C@@H]2[C@@H]1Cc1ccc(O)cc13
    >26 | i
75. CC1=C(C(=O)Nc2ccccc2)SCCO1
    >57 | i
76. CC1CCCCN1CC(=O)c1ccc2cc[nH]c2c1 (stereo unspecified)
    . | i
77. CN(C)c1ccccc1
    . | i
78. COC(=O)c1ccc(N2C(=O)CC(N3CCC(n4c(=O)[nH]c5ccccc54)CC3)C2=O)cc1 (stereo unspecified)
    >57 | i
79. Cc1nc2ccccc2c(=O)n1-c1cccc(O)c1
    >57 | i
80. COC(=O)C(O)(c1ccc(NC(=O)c2ccco2)c(OC)c1)C(F)(F)F (stereo unspecified)
    >11 | .

Filtered by structure: the compounds so far containing a thiophene ring, fused or not.
Every second line gives: Bst PK mod | TsaE inh
16. Cc1sc2c(c1C)C(c1cccs1)=NCC(=O)N2CC(=O)NCc1cccs1
    >57 | i
21. O=C(CCN1CC2CCC(CC2)C1)c1cccs1
    . | i

(list continues)
Every second line gives: Bst PK mod | TsaE inh
81. CC12CC1(C)C(=O)N(c1cc(Cl)cc(Cl)c1)C2=O (stereo unspecified)
    . | i
82. NC1CCCCC1N=Cc1c(O)n(Cc2ccc(F)cc2)c(=O)[nH]c1=O (stereo unspecified)
    >57 | i
83. Cc1nc(N)sc1CCN
    . | i
84. CCCC(=O)C1C(=O)NC(=O)NC1=O
    >57 | i
85. COc1cccc(CNC2CN3CCC2CC3)c1OC (stereo unspecified)
    >57 | i
86. CC[C@@H]1[C@@H]2Cc3ccc(O)cc3[C@@]1(CC)CCN2C
    . | i
87. NC(N)=NCCN=C(N)N
    . | i
88. Nc1c(C(=O)NC2CCCC2)c2nc3ccccc3nc2n1CC1CCCO1 (stereo unspecified)
    >57 | i
89. CC(C)NS(=O)(=O)c1ccc(OCC(=O)N2CCN(Cc3ccccc3)CC2)cc1
    >57 | i
90. CC(C)[C@@]1(NC(=O)[C@@H]2C[C@H]3c4cccc5[nH]cc(c45)C[C@@H]3N(C)C2)O[C@@]2(O)[C@H]3CCCN3C(=O)[C@H](Cc3ccccc3)N2C1=O
    . | i
91. CCC(=NC1CCN(Cc2ccccc2)CC1)c1c(O)[nH]c(=O)[nH]c1=O
    >57 | i
92. N#CC(Cl)Cl
    . | i
93. Brc1ccc(Oc2cc(Br)c(Br)cc2Br)c(Br)c1
    . | i
94. CCCCN1C(=O)NC(=O)C2(Cc3ccccc3N3CCOCC32)C1=O (stereo unspecified)
    >57 | i
95. CC(C)Br
    . | i
96. CC(C)(C)P(=O)(c1ccncc1)N1CCCC1 (stereo unspecified)
    >57 | i
97. C[C@@H](Cc1ccccc1)NCCC(c1ccccc1)c1ccccc1
    . | i
98. CCc1ccc(CCN2CCCCC2)nc1
    . | i
99. O=C(c1cc(-c2ccncc2)nc2ccccc12)N1CCC2(CC1)OCCO2
    >57 | i
100. O=C(c1cc(-c2cccnc2)nc2ccccc12)N1CCC2(CC1)OCCO2
    >57 | i
101. COc1ccc(-n2c(O)c(C(C)=NCc3ccco3)c(=O)[nH]c2=O)cc1
    >57 | i
102. CCOC(=O)C(O)(c1ccc(N)c(OC)c1)C(F)(F)F (stereo unspecified)
    >57 | i
103. CC[C@@H]1CN2CC[C@@H]1C[C@H]2[C@@H](O)c1ccnc2ccc(OC)cc12
    . | i
104. CCCOC(=O)[C@@H]1[C@@H](C(=O)O)[C@H]2CC[C@@H]1O2
    . | i
105. CCCCCCC[n+]1ccc(-c2cc[n+](CCCCCCC)cc2)cc1
    . | i
106. O=C(CN1CC(c2ccccc2)CC1=O)NCc1ccc(F)cc1 (stereo unspecified)
    . | i
107. C=CCN=C=S
    . | i
108. Oc1ccc(Cl)c(Cl)c1
    . | i
109. Cc1cc(Br)ccc1N1C(=O)CC(=O)NC1=O
    . | i
110. CN1CC[C@@H]2CN3CCc4cccc(c43)[C@H]2C1
    . | i
111. ClC1=C(Cl)C2(Cl)C3C4CC(C5OC45)C3C1(Cl)C2(Cl)Cl (stereo unspecified)
    . | i
112. c1ccc2cc3c(cc2c1)-c1cccc2cccc-3c12
    . | i
113. CC(=O)c1c(O)c(C)c(O)c(Cc2c(O)c3c(c(C(=O)/C=C\c4ccccc4)c2O)OC(C)(C)C=C3)c1O
    . | i
114. O=C(Cl)c1ccccc1F
    . | i
115. O=C(Cc1ccccc1)OC(COCc1ccccc1)CN1CCOCC1 (stereo unspecified)
    >57 | i
116. Cc1ccc(-n2c(O)c(C=NC3CCCCC3N)c(=O)[nH]c2=O)cc1C (stereo unspecified)
    >57 | i
117. Nc1cccc(Cl)c1
    . | i
118. N#CC(C#N)=Cc1ccc(O)c(O)c1
    . | i
119. CN(C)c1ccc(N(C)C)cc1
    . | i
120. CCCNC(=O)N1C2CCC1CC(O)(c1cccnc1)C2 (stereo unspecified)
    >57 | i
121. O=C(CN1CC(c2ccccc2)CC1=O)Nc1cccc(F)c1 (stereo unspecified)
    . | i
122. O=C(NCc1ccc(C(=O)N2CCC3(CC2)OCCO3)cc1)c1ccc2c(c1)OCO2
    >57 | i
123. O=C(CN1CCOCC1)c1ccc2cc[nH]c2c1
    . | i
124. Cc1cc(NC(=O)CCC(=O)N2CCC3(CC2)OCCO3)no1
    >57 | i
125. CC(=O)Nc1ccc(OC(=O)N2CCCCC2)cc1
    >57 | i
126. CN(C)C1=C(C#N)C(c2ccccc2)=NP(N(C)C)(N(C)C)=N1
    >57 | i
127. CC(C)CCON=O
    . | i
128. CC[C@@H](CO)NC(=O)[C@@H]1C=C2c3cccc4c3c(cn4C)C[C@H]2N(C)C1
    >26 | .
129. CN1CCc2nc(SCC(=O)OC(C)(C)C)c(C#N)cc2C1
    >26 | .
130. ClC=CCl
    . | i
131. O/N=C1\CCC2CN(C3CCCCC3)CC2C1 (stereo unspecified)
    . | i
132. CCSc1nnc([C@@H](N)Cc2c[nH]c3ccccc23)o1
    >57 | i
133. COC(=O)c1c(C)[nH]c(C(=O)C(Cc2ccccc2)N(C)C)c1C (stereo unspecified)
    >57 | i
134. S=C=Nc1cccc(C2(N3CCCCC3)CCCCC2)c1
    . | i
135. O=c1c2ccccc2nc(CSc2ncnc3nc[nH]c23)n1-c1ccccc1
    >57 | i
136. CC(C(N)=O)N1CC(c2ccccc2)CC1=O (stereo unspecified)
    >57 | i
137. O=C(c1cc2ccccn2n1)N1CCC2(CC1)OCCO2
    >57 | i
138. Cc1cccc(NC2=NCCCS2)c1C
    >57 | i
139. Clc1ccc(CO[C@@H](Cn2ccnc2)c2ccc(Cl)cc2Cl)cc1
    . | i

Compound activity as filed in PubChem BioAssay.
